eIF4H FP inh = inhibitors of RNA binding by human eIF4H | Q15056 | eIF4H fluorescence polarization binding assay | inhibition, % at 35 µM | 0.94% of 290,000 active | AID 2012;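 active = 50% or more with normal probe brightness, or confirmed in later tests; about a fifth of its hits are not listed in these tables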;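 also: calls also rest on retests at 20 µM and on dose response follow-up; 0% = protein and probe with vehicle and 100% = probe without protein; strong numbers were not always called active; many hits fall short of the cut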
MT1-MMP act inh = blocks activation of human MT1-MMP; AID 651647; P50281; HT1080 RFP-PRO-GFP cells, GFP/RFP ratio fluorescence, overnight; percent of plate control window, DMSO zero; GFP/RFP ratio change, % at 20 µM; 0.061% of 360,000 active;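 active = GFP/RFP ratio change of at least 30% with cell ATP level not reduced by more than half and red fluorescence within 50% of control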; also: strong numbers were not always called active
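Assay system: HT1080 RFP-PRO-GFP cells. Benchmarks: DMSO vehicle wells and RFP-L50D-GFP reporter cell wells. Times: overnight cell settling, then overnight compound exposure, 37 °C, 5% CO2. Compound: 20 µM single dose, 1% DMSO. Read-out basis: GFP/RFP fluorescence ratio.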
Rce1 inhib = blocks yeast Ras-converting enzyme. Q03530. yeast membranes, quenched prenylated peptide cleavage fluorescence. calls only. 0.27% of 290,000 active;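 active = fall in fluorescence gain of 50% or more versus controls, with final raw signal at or below 3038400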;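 also: plate controls were neutral control wells for no effect and wells lacking membranes for full effect; tested at 10 µM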
Target sequence (Q03530 whole entry, looked up): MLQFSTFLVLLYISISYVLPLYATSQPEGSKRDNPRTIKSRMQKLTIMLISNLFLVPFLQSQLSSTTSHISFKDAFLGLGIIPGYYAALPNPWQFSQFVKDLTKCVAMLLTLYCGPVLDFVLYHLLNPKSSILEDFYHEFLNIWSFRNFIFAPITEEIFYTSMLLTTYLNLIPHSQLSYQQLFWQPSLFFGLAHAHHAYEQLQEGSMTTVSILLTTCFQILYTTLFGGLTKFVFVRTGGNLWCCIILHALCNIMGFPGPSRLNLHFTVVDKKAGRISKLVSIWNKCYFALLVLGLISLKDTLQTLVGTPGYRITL
Yeast UUG start = alters start codon recognition fidelity in yeast; S. cerevisiae UUG-firefly luciferase reporter, luminescence/redox ratio; activity score, % at 18.7 µM; 0.13% of 350,000 active;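 active = replicate mean at a twofold rise or more, about +100% in these data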;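 also: firefly luciferase made from a UUG start codon reports start codon fidelity; reporter light over untreated wells divided by growth signal over untreated wells; some hits fall short of that in this replicate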
PABP FP inh = PABP-poly(A) binding inhibition; PABP-poly(A) RNA binding, fluorescence polarization; 1% of 290,000 active; P11940; AID 2014; inhibition, % at 35 µM;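 active = 50% or more with normal probe brightness, or confirmed in later tests; about a fifth of its hits are not listed in these tables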;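 also: calls also rest on retests at 20 µM and on dose response follow-up; controls were probe without protein and protein plus probe with vehicle; some compounds called inactive have numbers as strong as hits; many hits fall short of the cut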
CSC inhib = cancer stem cell inhibition. AID 2717. cancer stem cell-like cells viability, luminescence. 1.1% of 300,000 active. inhibition, % at 7.5 µM;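 active = mean at 75% or more and at least half the replicates too; tested in HMLE shEcad cells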;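 also: 0% = median of negative and 100% = median of positive control wells; the first replicate is given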
Env fusion inh = HIV envelope-mediated fusion inhibition; 1.1% of 360,000 active; inhibition, % at 12.3 µM; HeLa-JRFL Env/CEM21 cell fusion, luciferase;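 active = mean replicate inhibition score of at least 50 and every replicate individually at or above 50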;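 also: 0% = plate neutral controls and 100% = maraviroc near 300 nM; one replicate is shown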
MT1-MMP act inh RFP = also measured in MT1-MMP act inh; calls as there; RFP signal change, %; measured here: RFP expression control read;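 0 = vehicle wells; hits needed this value within 50% of zero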
* = called active by the depositor; i = inactive; . = no result given.

SMILES | eIF4H FP inh | MT1-MMP act inh | MT1-MMP act inh RFP | Rce1 inhib | Yeast UUG start | PABP FP inh | CSC inhib | Env fusion inh
CN(Cc1ccccc1)C(=O)CSc1nc2ccccc2[nH]1 | 1 | 0 | 2 | . | -11 | -2 | 17 | -24
Cc1ccc(-n2c(SCC(=O)NCC3CCCO3)nc3c(c2=O)SCC3)cc1 (stereo unspecified) | 3 | 1 | 9 | . | -6 | 0 | -16 | -18
C/C(CC(=O)Nc1ccc2c(c1)OCO2)=N\NC(=O)C(c1ccccc1)c1ccccc1 | 0 | -3 | 0 | i | -12 | -10 | 11 | -16
COc1cc(Cl)ccc1OCc1cc(C(=O)N2CCCCCC2)no1 | -14 | -2 | -4 | i | -3 | -12 | 22 | -2
Cc1cccc(-c2cc3nc4c(c(N5CCOCC5)n3n2)CCCC4)c1 | -2 | -6 | -6 | i | -27 | 1 | -6 | .
COc1ccc(-c2cc(C(=O)N3CCN(c4ccccc4O)CC3)c3ccccc3n2)cc1 | . | 2 | -4 | . | -4 | . | 18 | -36
Cc1nnc(-c2ccc(Oc3ccc(C)c(C)c3)c([N+](=O)[O-])c2)o1 | -2 | 3 | 1 | i | . | 2 | 28 | 28
C=CCOc1cccc(C2C(C(=O)c3ccco3)=C(O)C(=O)N2Cc2ccncc2)c1 (stereo unspecified) | 7 | 3 | 7 | i | -14 | 7 | -12 | -10
CCN(CC)C(=O)c1ncn2c1c(=O)[nH]c1ccccc12 | . | -108 | -71 | . | -3 | . | . | -50
O=C(O)c1ccc(N2C(=O)/C(=C/c3ccc(-c4ccc([N+](=O)[O-])cc4)o3)C=C2c2ccccc2)cc1 | 33 | 44 | 65 | i | . | -3 | 63 | .
Cc1nn(-c2ccccc2)c(C)c1C(=O)OCC(=O)N1CC(=O)Nc2ccccc21 | -5 | 0 | 0 | i | -6 | 4 | -9 | 43
CCOC(=O)CC(=O)CSCC(=O)Nc1ccc(C)cc1 | -5 | 2 | 6 | i | . | 0 | 15 | -91

Reprinted at random: 5 compounds from above.
SMILES | eIF4H FP inh | MT1-MMP act inh | MT1-MMP act inh RFP | Rce1 inhib | Yeast UUG start | PABP FP inh | CSC inhib | Env fusion inh
CCOC(=O)CC(=O)CSCC(=O)Nc1ccc(C)cc1 | -5 | 2 | 6 | i | . | 0 | 15 | -91
COc1cc(Cl)ccc1OCc1cc(C(=O)N2CCCCCC2)no1 | -14 | -2 | -4 | i | -3 | -12 | 22 | -2
C/C(CC(=O)Nc1ccc2c(c1)OCO2)=N\NC(=O)C(c1ccccc1)c1ccccc1 | 0 | -3 | 0 | i | -12 | -10 | 11 | -16
Cc1nnc(-c2ccc(Oc3ccc(C)c(C)c3)c([N+](=O)[O-])c2)o1 | -2 | 3 | 1 | i | . | 2 | 28 | 28
Cc1nn(-c2ccccc2)c(C)c1C(=O)OCC(=O)N1CC(=O)Nc2ccccc21 | -5 | 0 | 0 | i | -6 | 4 | -9 | 43

Results in PABP FP inh, eIF4H FP inh and Env fusion inh (four entries from above):
mol | PABP FP inh | eIF4H FP inh | Env fusion inh
CN(Cc1ccccc1)C(=O)CSc1nc2ccccc2[nH]1 | -2 | 1 | -24
Cc1ccc(-n2c(SCC(=O)NCC3CCCO3)nc3c(c2=O)SCC3)cc1 (stereo unspecified) | 0 | 3 | -18
C/C(CC(=O)Nc1ccc2c(c1)OCO2)=N\NC(=O)C(c1ccccc1)c1ccccc1 | -10 | 0 | -16
COc1cc(Cl)ccc1OCc1cc(C(=O)N2CCCCCC2)no1 | -12 | -14 | -2

Next section.
SMILES | eIF4H FP inh | MT1-MMP act inh | MT1-MMP act inh RFP | Rce1 inhib | Yeast UUG start | PABP FP inh | CSC inhib | Env fusion inh
COc1cc(/C=N/NC(=O)c2cccs2)ccc1OCc1ccccc1 | -3 | 2 | -3 | i | -17 | -4 | 2 | -38
CC1C(=O)Nc2ccccc2N1C(=O)c1ccccc1 (stereo unspecified) | 2 | -2 | -3 | i | . | 6 | . | -18
Cc1cccc(C)c1NC(=O)CSc1nnc(C)n1-c1ccccc1 | 8 | 8 | 4 | i | -19 | 1 | -4 | .
Cc1nc2ccccc2n1CCc1nc2c3ccccc3nc(SCC(=O)NCc3ccco3)n2n1 | 6 | 2 | -6 | i | -10 | 5 | . | -84
Cc1ccc(/C=C/C(=O)N2CCN(c3cccc(C(F)(F)F)c3)CC2)cc1 | -11 | 5 | -3 | i | . | 8 | 1 | 4
O=[N+]([O-])c1nn(-c2ccc3c(c2)OCCO3)n(O)c1=NCCCO | -2 | -4 | -4 | i | . | -7 | 5 | -16
O=C(Nc1ccc(Cl)cc1Cl)c1n[nH]c(Cn2cncn2)n1 | 18 | 4 | 9 | i | -22 | 9 | 0 | -40
Cc1ccc(OCCCCn2ccnc2)c(Cl)c1 | -7 | 0 | -5 | i | -19 | 13 | 28 | .
C/C(CC(=O)Nc1ccc(Br)cc1)=N\NC(=O)Cc1csc(N)n1 | 0 | 3 | 4 | i | -28 | 8 | . | 9
O=C1c2cccnc2C(Nc2ccc(Br)cc2)N1Cc1cccs1 (stereo unspecified) | -17 | -2 | 5 | . | -7 | -8 | -7 | 17
COc1ccc(-n2c(CNC(=O)c3cccs3)n[nH]c2=S)cc1 | -3 | -1 | 1 | i | -20 | 4 | -6 | -80
Cc1cc2c(cc1C)NC(c1nc3ccccc3[nH]1)C1=C(CC(C)(C)CC1=O)N2 (stereo unspecified) | -3 | 5 | 6 | i | -5 | 14 | -5 | .
O=C(COc1ncnc2c1cnn2-c1ccccc1)Nc1ccc(S(=O)(=O)N2CCCCC2)cc1 | -13 | -2 | -9 | i | -7 | -4 | -9 | -8
COc1ccc(C2=CC(=O)C[C@H](c3ccc(F)cc3)C2)c(F)c1F | . | 4 | -7 | . | -7 | . | 54 | -5
CN(C(=O)c1ccc(N2CCCCC2)c([N+](=O)[O-])c1)C1(C)CCS(=O)(=O)C1 (stereo unspecified) | -4 | 7 | -2 | i | 26 | 15 | 3 | 4
O=C(CNC(=O)c1ccco1)NC1CCCCCC1 | . | -4 | -3 | i | -8 | . | 9 | -24
COC(=O)c1cc(S(=O)(=O)NCCc2ccc(C)cc2)c[nH]1 | -1 | -1 | -4 | i | -12 | -12 | 3 | 20
COCCCN(C(C)=O)c1nc(-c2ccccc2)cs1 | -4 | 3 | 1 | i | 2 | 3 | -6 | -232
CC(=O)Nc1ccc(S(=O)(=O)Nc2cccc(S(=O)(=O)N(C)c3ccccc3)c2)cc1 | . | 0 | -5 | . | -5 | . | . | 23
CCN(CC)c1ncnc2c1ncn2[C@H]1CN(Cc2ccco2)C[C@@H](CO)O1 | . | -1 | 1 | . | 7 | . | . | 11
CN1C(=O)c2ccccc2Sc2ccc(NC(=O)N3CCOCC3)cc21 | -5 | 5 | -2 | i | 4 | 11 | -9 | 4
CN(CC(=O)Nc1ccc(Cl)c(C(F)(F)F)c1)C(=O)CCNC(=O)c1ccco1 | . | 0 | -3 | i | -13 | . | -4 | 32
N#CC(OC(=O)c1ccccc1)c1cccc([N+](=O)[O-])c1 (stereo unspecified) | . | 1 | -1 | . | -13 | . | . | -45
CN1CCN(c2ccccc2NC(=O)c2ccc(Br)o2)CC1 | -9 | 4 | 2 | i | -16 | -11 | -6 | .
Cc1cc(=O)oc2cc(OCC#N)ccc12 | -6 | 1 | 7 | i | -18 | -17 | -2 | -8
COc1cccc2c(=O)c3ccoc3n(C)c12 | -1 | -3 | 2 | i | -11 | 14 | 7 | .
Cn1cccc1C(=O)NNC(=O)COc1ccc(C#N)cc1 | . | -1 | 3 | . | -6 | . | . | 2
Cc1ccccc1Cn1c(-c2cncs2)nc2ccccc21 | 1 | 5 | -3 | i | -20 | -5 | 21 | 54
Cc1nn(C)c2c1NC(=O)CS2 | . | 2 | 3 | . | -45 | . | . | 2
COC(CNC(=S)Nc1ccc([N+](=O)[O-])cc1)OC | -7 | 5 | 2 | i | . | -8 | -19 | 4
O=C(Nc1nnc(-c2ccc(Cl)cc2)o1)Nc1ccccc1Cl | -4 | -1 | -1 | i | . | 2 | 11 | -33
COc1ccc2c(c1OC)C(=O)N(c1cccc(C(F)(F)F)c1)C2 | -6 | 3 | 3 | i | -15 | -8 | -2 | -84
O=C(CCNC(=O)c1ccco1)Nc1ccc(SC(F)F)cc1 | -3 | 0 | 0 | i | . | -8 | -10 | 6
COC(=O)CN1C(=O)[C@H]2[C@@H](c3ccc(C)o3)N3C(=O)CN(Cc4ccccc4)C(=O)[C@@]3(C)[C@H]2C1=O | -1 | 0 | -1 | i | -9 | 7 | -18 | 40
Cc1cccc(NC(=O)N2CCC(n3nnc4cc(C)ccc43)CC2)c1 | 0 | 3 | -1 | i | -15 | -7 | 0 | 13
O=C(CCl)NC(Cc1ccccc1)c1ccccc1 (stereo unspecified) | 3 | 2 | 6 | i | . | 2 | 2 | 19

Among those listed so far, three contain two or more sulfur atoms:
SMILES | eIF4H FP inh | MT1-MMP act inh | MT1-MMP act inh RFP | Rce1 inhib | Yeast UUG start | PABP FP inh | CSC inhib | Env fusion inh
Cc1ccc(-n2c(SCC(=O)NCC3CCCO3)nc3c(c2=O)SCC3)cc1 (stereo unspecified) | 3 | 1 | 9 | . | -6 | 0 | -16 | -18
COc1ccc(-n2c(CNC(=O)c3cccs3)n[nH]c2=S)cc1 | -3 | -1 | 1 | i | -20 | 4 | -6 | -80
CC(=O)Nc1ccc(S(=O)(=O)Nc2cccc(S(=O)(=O)N(C)c3ccccc3)c2)cc1 | . | 0 | -5 | . | -5 | . | . | 23

Next section
SMILES | eIF4H FP inh | MT1-MMP act inh | MT1-MMP act inh RFP | Rce1 inhib | Yeast UUG start | PABP FP inh | CSC inhib | Env fusion inh
O=C(Nc1ccc(F)cc1F)c1ccc(-n2cccn2)nc1 | 4 | 2 | -1 | i | . | 4 | 3 | -22
COc1ccc(NC(=O)C2CCN(C(=O)Nc3ccc(C)cc3)CC2)cc1OC | -8 | -2 | -1 | i | 4 | 2 | -8 | 10
COc1ccc(-c2cc3cc4c(cc3cn2)OCO4)cc1 | . | 4 | -3 | . | -13 | . | 7 | -354
CC(=O)NC(=S)Nc1ccc(S(=O)(=O)N2CCOCC2)cc1 | -6 | 0 | 4 | i | . | 0 | -25 | -11
Cc1ccc(SCc2cc(-c3ccc(Cl)cc3)no2)cc1 | -3 | 3 | -2 | i | . | -13 | -10 | .
CCOC(=O)c1c(C)nc2cc(C)cc(C)n12 | 6 | 1 | 5 | i | . | -7 | -4 | -42
COc1ccc(C)cc1-n1c(SCC(=O)N2CCOCC2)nc2ccccc2c1=O | . | 2 | 12 | . | -3 | . | . | -37
COc1ccc2c(=O)c(-c3ccc(C)cc3)c(-c3ccccc3)oc2c1 | . | -5 | -9 | . | -14 | . | . | -54
CC1(C)CC1C(=O)Nc1ccc([N+](=O)[O-])cc1Br (stereo unspecified) | -4 | -2 | -2 | i | -1 | -1 | 0 | .
O=C(Nc1ccccc1N1CCOCC1)c1cnccn1 | 5 | -11 | -1 | i | -23 | 13 | -2 | -124
O=C(O)c1ccc(S(=O)(=O)c2ccc3c(c2)C(=O)N(NC(=O)c2cccnc2)C3=O)cc1 | -8 | 0 | 3 | i | . | 5 | -5 | 7
O=C(C1CC1)N1CCN(S(=O)(=O)c2ccc3c(c2)OCCO3)CC1 | 2 | 1 | -2 | i | -3 | 4 | -8 | -1
CCOC(=O)[C@@H]1[C@H]2COc3ccccc3[C@H]2N2C(=O)N(c3ccccc3)C(=O)[C@]12C | 2 | -2 | 4 | i | -3 | 0 | -11 | .
O=C(Nc1ccc(-c2csnn2)cc1)C1CC1 | 0 | 2 | -1 | i | . | -9 | -22 | -13
O=C(CN(C(=O)CCC(=O)Nc1nccs1)c1ccc(F)cc1)NCc1ccco1 | 6 | 2 | 8 | i | -17 | 0 | -1 | .
CC(=O)Nc1ccc(OCC(=O)NC(C)c2ccc(F)cc2)cc1 (stereo unspecified) | -2 | -1 | 2 | i | -16 | -2 | 3 | 9
